Source: PubChem BioAssay
A1 apoptosis 2: blocks A1, raising caspase activity | MEF A1-2A-BIM cells, caspase-Glo luminescence, 3 h; percent of clofoctol response, DMSO zero | caspase activation, % (no concentration beside the values) | 24,000 tested, under 10 active; in the data active means caspase activation above about 5.9%;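 further: wells of about 30 µL received 50 nL stock; the first replicate is given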
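Material: mouse embryonic fibroblasts co-expressing A1 and BIM (A1-2A-BIM), primed for A1 dependence / Quantity: 2500 cells/well / Buffer or medium: RPMI-1640 growth medium with 10% FBS / Doses: 50 nL compound per well, pinned / Schedule: 3 h compound exposure at 37 °C / Signal: Caspase-Glo luminescence (DEVD substrate) / Measure: Caspase-3/7 activation, seen as rise in luminescence signal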
* = called active by the depositor. This is a subset. The share of hits here may be higher or lower than overall.

No.	canonical_smiles	A1 apoptosis 2
1	COc1ccc(S(=O)(=O)Nc2ccc3c(c2)C(=O)N([C@@H](C)CO)C[C@H](C)[C@H](CN(C)C(=O)Nc2ccc(F)cc2)O3)cc1	0.6
2	C[C@@H]1CN([C@H](C)CO)C(=O)Cc2cc(NC(=O)Nc3ccc4c(c3)OCO4)ccc2O[C@H]1CN(C)Cc1ccc(C(=O)Nc2ccccc2N)cc1	-0.5
3	C[C@@H]1CCCCO[C@H](CN(C)C(=O)Nc2ccc3c(c2)OCO3)[C@H](C)CN([C@@H](C)CO)C(=O)c2cc(NS(=O)(=O)c3ccc(F)cc3)ccc2O1	0.4
4	CC(C)NC(=O)Nc1cccc2c1O[C@@H](CN(C)Cc1ccc(C(=O)Nc3ccccc3N)cc1)[C@@H](C)CN([C@@H](C)CO)C2=O	1.3
5	COc1ccc(CN(C)C[C@@H]2OCCCC[C@H](C)Oc3ccc(NS(C)(=O)=O)cc3C(=O)N([C@H](C)CO)C[C@H]2C)cc1	1.1
6	C[C@@H]1CN([C@H](C)CO)C(=O)c2cc(NS(=O)(=O)c3ccc(Cl)cc3)ccc2O[C@@H](C)CCCCO[C@@H]1CN(C)S(=O)(=O)c1ccccc1	-0.3
7	C[C@H]1CN([C@@H](C)CO)C(=O)c2cc(NC(=O)Cn3cnnn3)ccc2O[C@@H]1CN(C)Cc1ccccc1	0.2
8	CNC[C@@H]1OCCCC[C@@H](C)Oc2ccc(N(C)C)cc2C(=O)N([C@H](C)CO)C[C@@H]1C	-0.4
9	Cc1noc(C)c1S(=O)(=O)Nc1ccc2c(c1)CC(=O)N([C@@H](C)CO)C[C@@H](C)[C@@H](CN(C)Cc1ccccc1)O2	0.3
10	C[C@@H]1CCCCO[C@@H](CN(C)S(=O)(=O)c2cccs2)[C@H](C)CN([C@H](C)CO)C(=O)c2cc(NC(=O)C3CCCCC3)ccc2O1	1.8
11	CNC[C@H]1Oc2ccc(NC(=O)Nc3cccc4ccccc34)cc2CC(=O)N([C@H](C)CO)C[C@@H]1C	-0.7
12	C[C@@H]1CN([C@H](C)CO)C(=O)c2cccc(NC(=O)C3CCOCC3)c2O[C@H]1CN(C)Cc1ccc(C(=O)Nc2ccccc2N)cc1	-0.4
13	Cc1ccc(S(=O)(=O)Nc2cccc3c2O[C@@H](CN(C)CC2CCCCC2)[C@@H](C)CN([C@@H](C)CO)C3=O)cc1	1.6
14	C[C@@H]1CN([C@@H](C)CO)C(=O)c2cc(NC(=O)C3CC3)ccc2O[C@H]1CN(C)C(=O)Nc1ccccc1	-0.7
15	Cc1ccc(S(=O)(=O)N(C)C[C@@H]2Oc3ccc(NS(C)(=O)=O)cc3C(=O)N([C@@H](C)CO)C[C@@H]2C)cc1	1.0
16	C[C@H]1CN([C@@H](C)CO)C(=O)c2cccc(NC(=O)c3nc4ccccc4s3)c2O[C@H]1CN(C)C(=O)Nc1ccccc1	-0.8
17	C[C@H]1CCCCO[C@H](CN(C)CC2CCCCC2)[C@@H](C)CN([C@@H](C)CO)C(=O)c2cc(NS(=O)(=O)c3ccccc3)ccc2O1	-1.0
18	Cc1noc(C)c1S(=O)(=O)Nc1ccc2c(c1)CC(=O)N([C@H](C)CO)C[C@H](C)[C@@H](CN(C)C(=O)NC(C)C)O2	1.4
19	C[C@@H]1CN([C@H](C)CO)C(=O)Cc2cc(NS(=O)(=O)c3ccccc3)ccc2O[C@@H]1CN(C)Cc1ccccc1	-0.5
20	C[C@H](CO)N1C[C@H](C)[C@@H](CN(C)C(=O)Nc2ccc(F)cc2)Oc2c(NS(=O)(=O)c3ccccc3)cccc2C1=O	-0.9

Looked up one by one from above (four):
No.	canonical_smiles	A1 apoptosis 2
10	C[C@@H]1CCCCO[C@@H](CN(C)S(=O)(=O)c2cccs2)[C@H](C)CN([C@H](C)CO)C(=O)c2cc(NC(=O)C3CCCCC3)ccc2O1	1.8
19	C[C@@H]1CN([C@H](C)CO)C(=O)Cc2cc(NS(=O)(=O)c3ccccc3)ccc2O[C@@H]1CN(C)Cc1ccccc1	-0.5
15	Cc1ccc(S(=O)(=O)N(C)C[C@@H]2Oc3ccc(NS(C)(=O)=O)cc3C(=O)N([C@@H](C)CO)C[C@@H]2C)cc1	1.0
3	C[C@@H]1CCCCO[C@H](CN(C)C(=O)Nc2ccc3c(c2)OCO3)[C@H](C)CN([C@@H](C)CO)C(=O)c2cc(NS(=O)(=O)c3ccc(F)cc3)ccc2O1	0.4

(further entries)
No.	canonical_smiles	A1 apoptosis 2
21	C=CCOC(=O)C(=O)/C=C/c1coc2ccccc2c1=O	0.2
22	COc1ccc(S(=O)(=O)Nc2ccc3c(c2)CC(=O)N([C@@H](C)CO)C[C@H](C)[C@@H](CN(C)CC2CC2)O3)cc1	-1.8
23	C[C@H]1CN([C@@H](C)CO)C(=O)c2cccc(NS(=O)(=O)c3cccs3)c2O[C@@H]1CN(C)C(=O)Nc1ccccc1	0.8
24	CNC[C@@H]1OCCCC[C@@H](C)Oc2ccc(N)cc2C(=O)N([C@@H](C)CO)C[C@H]1C	-1.3
25	C[C@@H]1CCCCO[C@@H](CN(C)Cc2ccc(C(=O)Nc3ccccc3N)cc2)[C@@H](C)CN([C@H](C)CO)C(=O)c2cc(NS(=O)(=O)c3ccccc3)ccc2O1	-0.4
26	Cc1noc(C)c1NC(=O)Nc1cccc2c1O[C@H](CN(C)C)[C@@H](C)CN([C@@H](C)CO)C2=O	1.0
27	C[C@H]1CN([C@@H](C)CO)C(=O)c2cc(NC(=O)Cc3cn(C)c4ccccc34)ccc2O[C@H]1CN(C)Cc1ccccc1	2.5
28	CC(C)NC(=O)Nc1ccc2c(c1)C(=O)N([C@H](C)CO)C[C@H](C)[C@@H](CN(C)S(=O)(=O)c1ccc(F)cc1)OCCCC[C@@H](C)O2	-0.6
29	CNC[C@@H]1Oc2ccc(NC(=O)Nc3ccccc3)cc2C(=O)N([C@H](C)CO)C[C@@H]1C	1.0
30	COc1ccc(CN(C)C[C@@H]2Oc3ccc(NS(=O)(=O)c4ccccc4)cc3CC(=O)N([C@@H](C)CO)C[C@H]2C)cc1	0.1
31	Cc1noc(C)c1NC(=O)Nc1ccc2c(c1)CC(=O)N([C@@H](C)CO)C[C@@H](C)[C@H](CN(C)C(=O)Nc1c(C)noc1C)O2	-0.8
32	CNC[C@H]1OCCCC[C@@H](C)Oc2ccc(NC(=O)CCC(F)(F)F)cc2C(=O)N([C@@H](C)CO)C[C@H]1C	-1.0
33	C[C@@H]1CN([C@@H](C)CO)C(=O)c2cc(NS(=O)(=O)c3cccs3)ccc2O[C@H]1CN(C)S(=O)(=O)c1cn(C)cn1	-0.1
34	COc1ccc(S(=O)(=O)N(C)C[C@@H]2Oc3ccc(NS(=O)(=O)c4cccs4)cc3C(=O)N([C@H](C)CO)C[C@H]2C)cc1	0.8
35	C[C@@H]1CN([C@H](C)CO)C(=O)c2cc(NS(=O)(=O)c3ccc(F)cc3)ccc2O[C@@H]1CN(C)CC1CCCCC1	0.4
36	C[C@H]1CN([C@@H](C)CO)C(=O)CCCn2cc(nn2)CO[C@H]1CN(C)Cc1cccc(C(F)(F)F)c1	0.0
37	C[C@@H]1CN([C@H](C)CO)C(=O)Cc2cc(NC(=O)c3ccncc3)ccc2O[C@@H]1CN(C)S(=O)(=O)c1ccc(F)cc1	0.5
38	O=C(N/N=C/c1ccncc1Br)c1ccccc1O	-11
39	CC(C)NC(=O)N(C)C[C@@H]1Oc2c(NC(=O)Nc3cccc4ccccc34)cccc2C(=O)N([C@H](C)CO)C[C@@H]1C	1.3
40	C[C@@H]1CN([C@H](C)CO)C(=O)c2cc(NC(=O)CCC(F)(F)F)ccc2O[C@@H](C)CCCCO[C@@H]1CN(C)S(=O)(=O)c1ccccc1	-0.3

(cont.)
No.	canonical_smiles	A1 apoptosis 2
41	COc1ccc(NC(=O)N(C)C[C@@H]2OCCCC[C@@H](C)Oc3ccc(NS(=O)(=O)c4ccc(OC)cc4)cc3C(=O)N([C@H](C)CO)C[C@@H]2C)cc1	-1.2
42	C[C@@H]1CN([C@@H](C)CO)C(=O)c2cccc(NC(=O)c3cnccn3)c2O[C@H]1CN(C)Cc1ccccc1	0.7
43	C[C@@H]1CN([C@@H](C)CO)C(=O)c2cc(NS(=O)(=O)c3ccc(Cl)cc3)ccc2O[C@@H]1CN(C)Cc1ccc(Cl)c(Cl)c1	0.2
44	O=S(=O)(N[C@@H]1CCCN(Cc2ccc(OCCO)cc2)C1)c1cc(C(F)(F)F)ccc1Cl	-0.6
45	C[C@@H]1CN([C@H](C)CO)C(=O)Cc2cc(NC(=O)Nc3ccc(F)cc3)ccc2O[C@@H]1CN(C)Cc1ccc(C(=O)Nc2ccccc2N)cc1	0.1
46	CNC[C@H]1Oc2ccc(NS(=O)(=O)c3ccc(OC)cc3)cc2C(=O)N([C@H](C)CO)C[C@@H]1C	0.2
47	Cc1ccc(S(=O)(=O)Nc2ccc3c(c2)C(=O)N([C@@H](C)CO)C[C@H](C)[C@H](CN(C)C(=O)NC2CCCCC2)OCCCC[C@H](C)O3)cc1	-1.3
48	CCOC(=O)/C=C/c1ccccc1OC	-2.6
49	C[C@H](CO)N1C[C@H](C)[C@@H](CN(C)C(=O)Nc2ccc(F)cc2)OCCCC[C@H](C)Oc2ccc(NC(=O)c3ccncc3)cc2C1=O	0.5
50	C[C@@H]1CN([C@H](C)CO)C(=O)Cc2cc(NC(=O)CCN3CCOCC3)ccc2O[C@@H]1CN(C)Cc1ccc(Cl)c(Cl)c1	-0.3
51	C[C@@H]1CCCCO[C@@H](CN(C)C(=O)c2ccccc2)[C@H](C)CN([C@H](C)CO)C(=O)c2cc(NC(=O)c3ccncc3)ccc2O1	-0.3
52	C[C@@H]1CN([C@H](C)CO)C(=O)c2cc(NC(=O)Cc3ccccc3)ccc2O[C@H]1CN(C)S(=O)(=O)c1cccs1	0.4
53	C[C@@H]1CN([C@H](C)CO)C(=O)Cc2cc(NC(=O)CCCCCC(=O)Nc3ccccc3N)ccc2O[C@H]1CN(C)C	0.2
54	CNC[C@H]1OCCCC[C@@H](C)Oc2ccc(NS(=O)(=O)c3ccc(Cl)cc3)cc2C(=O)N([C@H](C)CO)C[C@@H]1C	-0.9
55	C[C@@H]1CN([C@@H](C)CO)C(=O)c2cc(NS(=O)(=O)c3cn(C)cn3)ccc2O[C@@H]1CN(C)Cc1ccc(C(F)(F)F)cc1	-1.3
56	C[C@@H]1CN([C@H](C)CO)C(=O)Cc2cc(N(C)C)ccc2O[C@@H]1CN(C)Cc1ccc(C(=O)Nc2ccccc2N)cc1	-0.5
57	C[C@H](CO)N1C[C@H](C)[C@H](CN(C)Cc2ccncc2)Oc2ccc(NC(=O)Cc3ccccc3)cc2CC1=O	-0.1
58	C[C@@H]1CCCCO[C@@H](CN(C)C)[C@H](C)CN([C@H](C)CO)C(=O)c2cc(NC(=O)Nc3ccccc3)ccc2O1	-0.4
59	C[C@@H]1CN([C@@H](C)CO)C(=O)Cc2cc(NS(=O)(=O)c3cn(C)cn3)ccc2O[C@H]1CN(C)C(=O)Nc1ccc(F)cc1	-0.3
60	COc1ccc(S(=O)(=O)N(C)C[C@H]2OCCCC[C@@H](C)Oc3ccc(N(C)C)cc3C(=O)N([C@@H](C)CO)C[C@@H]2C)cc1	-0.4

3 compounds out of the list, sorted by SMILES length, rising:
No.	canonical_smiles	A1 apoptosis 2
43	C[C@@H]1CN([C@@H](C)CO)C(=O)c2cc(NS(=O)(=O)c3ccc(Cl)cc3)ccc2O[C@@H]1CN(C)Cc1ccc(Cl)c(Cl)c1	0.2
49	C[C@H](CO)N1C[C@H](C)[C@@H](CN(C)C(=O)Nc2ccc(F)cc2)OCCCC[C@H](C)Oc2ccc(NC(=O)c3ccncc3)cc2C1=O	0.5
45	C[C@@H]1CN([C@H](C)CO)C(=O)Cc2cc(NC(=O)Nc3ccc(F)cc3)ccc2O[C@@H]1CN(C)Cc1ccc(C(=O)Nc2ccccc2N)cc1	0.1

Further structures follow.
No.	canonical_smiles	A1 apoptosis 2
61	C[C@H](CO)N1C[C@H](C)[C@H](CN(C)S(=O)(=O)c2ccccc2)OCc2cn(nn2)CCCC1=O	1.4
62	C[C@@H]1CN([C@H](C)CO)C(=O)Cc2cc(NC(=O)Nc3cccc4ccccc34)ccc2O[C@@H]1CN(C)S(C)(=O)=O	-0.5
63	C[C@H](CO)N1C[C@H](C)[C@@H](CN(C)C(=O)Nc2ccc3c(c2)OCO3)OCCCC[C@H](C)Oc2ccc(NC(=O)Nc3ccc(C(F)(F)F)cc3)cc2C1=O	-1.6
64	C[C@H](CO)N1C[C@H](C)[C@@H](CN(C)S(=O)(=O)c2ccc(F)cc2)Oc2ccc(NS(=O)(=O)c3ccccc3)cc2C1=O	-0.4
65	CC(C)NC(=O)Nc1cccc2c1O[C@H](CN(C)S(=O)(=O)c1ccc(Cl)cc1)[C@H](C)CN([C@@H](C)CO)C2=O	-0.8
66	Cc1noc(C)c1S(=O)(=O)Nc1ccc2c(c1)CC(=O)N([C@@H](C)CO)C[C@H](C)[C@H](CN(C)C(=O)NC(C)C)O2	-0.5
67	CCO[C@H]1OC(C(=O)NCc2ccccc2)=C[C@@H](c2cn(C(C)=O)c3ccccc23)[C@@H]1CCCO	-1.1
68	C[C@@H]1CCCCO[C@H](CN(C)Cc2ccccc2)[C@H](C)CN([C@@H](C)CO)C(=O)c2cc(N(C)C)ccc2O1	-0.1
69	Cc1ccc(S(=O)(=O)N(C)C[C@@H]2OCCCC[C@@H](C)Oc3ccc(NS(=O)(=O)c4c(C)noc4C)cc3C(=O)N([C@H](C)CO)C[C@@H]2C)cc1	0.5
70	C[C@@H]1CN([C@@H](C)CO)C(=O)c2cc(NC(=O)CCC(F)(F)F)ccc2O[C@@H](C)CCCCO[C@H]1CN(C)C(=O)c1ccncc1	-0.2
71	Cc1noc(C)c1S(=O)(=O)N(C)C[C@@H]1OCCCC[C@@H](C)Oc2ccc(NC(=O)CCCN(C)C)cc2C(=O)N([C@H](C)CO)C[C@H]1C	2.0
72	C[C@H]1CN([C@@H](C)CO)C(=O)c2cccc(NS(C)(=O)=O)c2O[C@H]1CN(C)C(=O)NC1CCCCC1	0.5
73	CC(C)NC(=O)Nc1ccc2c(c1)C(=O)N([C@@H](C)CO)C[C@@H](C)[C@H](CN(C)S(C)(=O)=O)OCCCC[C@@H](C)O2	-1.1
